Compound activity as filed in PubChem BioAssay.
Rango-impB inh – qHTS Assay for Inhibitors of Rango (Ran-regulated importin-beta cargo) - Importin beta complex formation | Importin subunit beta-1 (Homo sapiens), Q14974 | actives 0.031% (n = 340,000) | AID 540263, 2011 | Potency, µM (titrated, usually from 92.2 µM), for the others: top-dose inhibition of complex formation | Rango CFP/YFP FRET sensor + importin beta, 45 min; active = rising FRET ratio curve, often small or poorly fitted; inconclusive = mostly compound fluorescence or quenching in the first reads; inactive = flat curves in all reads;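 note: potency is the fitted concentration of half-maximal effect; 0% = DMSO wells and 100% = buffer wells lacking importin beta; nearly all actives have a fitted effect of over 15% in size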
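Inhibition scored from the CFP 486 nm/YFP 530 nm FRET ratio 45 min after adding 0.125 microM importin beta to 50 nM Rango biosensor preincubated 5 min with compound (room temperature, PBS with DTT, Tween-20, BSA). No-importin wells as positive control.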
Rango release inh – qHTS Assay for Inhibitors of RanGTP induced Rango (Ran-regulated importin-beta cargo) - Importin beta complex dissociation; Snurportin-1 (Homo sapiens) + GTP-binding nuclear protein Ran (Homo sapiens) + Importin …; Biochemical FRET Rango-importin beta, RanGTP-induced dissociation; Potency, µM (highest dose often 46.1 µM), for the others: at the highest dose activity change, negative = inhibition; actives 0.071% (n = 340,000); AID 540253, 2011; active means falling FRET ratio curve, often poorly fitted, with flat reads before Ran was added; inconclusive means other falling curves, or compound fluorescence or quenching; inactive means flat or rising ratio curve;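 note: potency is the fitted concentration of half-maximal effect; % of control where 0% means no effect; nearly all actives have a fitted effect of over 45% in size; -100% = wells without RanGTP and RCC1; the record marks most hits as doubtful in a second field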
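FRET read at 45 min, room temperature: inhibitors block the CFP/YFP signal rise when RanGTP (0.6 uM Ran, 2 mM GTP, 0.2 uM RCC1) frees Rango (0.1 uM) from importin beta (0.25 uM). Pre-read after 5 min compound exposure flags interference.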
miR-21 FLuc – qHTS Assay for Modulators of miRNAs and/orActivators of miR-21. HeLa miR-21 FLuc reporter, luciferase, 48 h. AID 2288, 2010. 340,000 tested, under 10 active. Potency, µM (top dose mostly 38.3 µM), for the others: top-dose reporter change, positive = more light; active = well fitted rising curve with a large enough effect; inconclusive = small, poorly fitted or top-dose-only effect; inactive = no such curve, though single readings can be large or run the other way;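 note: % of control where 0% means no effect; miR-21 action dims this reporter so a rising signal means less miR-21 action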
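HeLa cells stably expressing CMV-driven firefly luciferase with a downstream miR-21 binding sequence, endogenously expressing miR-21, were treated with titrations (up to about 40uM final) for 48 hours at 37 degree Celsius. Luciferase luminescence was read after lysis.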
GLA inh pH 4.5 – qHTS Assay for Inhibitors of Human alpha-Galactosidase at pH 4.5; Alpha-galactosidase A (Homo sapiens), P06280; purified enzyme, 4-MU-alpha-Gal fluorescence, pH 4.5; activity change, negative = inhibition, % at 105 µM; 230,000 tested, under 10 active; inconclusive = small, poorly fitted or top-dose-only inhibition, or a rising curve; inactive = flat fitted curve, though single readings scatter; no compound was filed as active;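 note: 0% = full activity with enzyme and -100% = basal without enzyme; dose as in the result columns while the protocol names 77 µM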
Target sequence (P06280 whole entry, looked up): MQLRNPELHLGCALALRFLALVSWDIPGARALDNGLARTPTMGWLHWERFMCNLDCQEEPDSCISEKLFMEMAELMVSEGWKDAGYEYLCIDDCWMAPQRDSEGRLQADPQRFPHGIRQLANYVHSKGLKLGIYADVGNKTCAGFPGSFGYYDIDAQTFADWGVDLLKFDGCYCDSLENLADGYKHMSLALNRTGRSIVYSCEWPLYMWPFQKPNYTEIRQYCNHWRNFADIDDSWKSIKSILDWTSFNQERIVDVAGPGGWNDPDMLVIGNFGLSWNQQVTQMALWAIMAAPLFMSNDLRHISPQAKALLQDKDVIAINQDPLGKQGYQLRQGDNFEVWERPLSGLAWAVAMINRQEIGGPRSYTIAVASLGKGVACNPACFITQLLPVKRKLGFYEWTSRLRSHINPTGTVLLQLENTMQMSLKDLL
Numbers without * were called inactive; ? = inconclusive; . = no result given; & = joins results of further samples.

Every second line gives: Rango-impB inh | Rango release inh | miR-21 FLuc | GLA inh pH 4.5
- Cc1ccc(CN2C(=O)C(C)Oc3ccccc32)cc1 (configuration not stated)
 : -3.9% | 7.0% | -4.7% | -3.4
- CC(=O)NCCc1nc2ccccc2n1CCCCOc1ccccc1
 : 3.3% | -10.3% | -0.9% | .
- CCOCCCNC(=O)C(NC(=O)CNC(=O)c1ccccc1)c1ccccc1 (configuration not stated)
 : 0.3% | -11.7% | -4.4% | 3.0
- O=C(Cn1cnc2ccccc2c1=O)N1CCc2ccccc2C1
 : -5.1% | -9.3% | -5.4% | 3.4
- CCN(CC)S(=O)(=O)c1cc(OC)ccc1N=Nc1ccc(O)c2ncccc12
 : 0.1% | ? | ? | .
- CCC1(C)Cc2ccccc2C(=S)N1 (configuration not stated)
 : -0.1% | 3.8% | -2.5% | 4.1
- Cc1ccc(S(=O)(=O)N2CCC(=O)N(C(COCc3cccc(C(F)(F)F)c3)C(C)C)CC2)cc1 (configuration not stated)
 : 3.3% | -13.1% | 6.2% | -23.3
- COC(=O)[C@]1(Cc2ccccc2)N[C@H](c2ccc(-c3cc(C(C)=O)cs3)cc2)[C@@H]2C(=O)N(C)C(=O)[C@@H]21
 : 1.4% | 3.4% | . | .
- Cc1ccc2nc(C)cc(C(=O)NC3CCCCCC3)c2c1
 : -5.5% | 0.6% | . | .
- O=C(NCCCN1CCCC1=O)c1cccc(NS(=O)(=O)c2ccccc2)c1
 : 3.9% | 22.2% | . | .
- COc1ccc(S(=O)(=O)Cc2ccc(C(=O)NCc3cccs3)o2)cc1
 : -0.3% | 8.0% | 0.3% | 3.4
- O=C(OCC(=O)N1CCCCC1)c1cc(S(=O)(=O)N2CCOCC2)c(Cl)cc1Cl
 : -0.4% | -5.5% | . | .
- O=C(C(NS(=O)(=O)c1cccs1)c1ccccc1)N1CCN(c2ccccc2)CC1 (configuration not stated)
 : -0.1% | -1.7% | 1.8% | 5.1
- O=C(NCc1cccc(Br)c1)C1CC(c2cc(C(F)(F)F)cc(C(F)(F)F)c2)=NO1 (configuration not stated)
 : -2.6% | 6.4% | . | .
- Cc1ccc(N(CC(=O)N2CCOCC2)S(C)(=O)=O)cc1
 : 1.3% | 0.5% | -2.1% | 7.4
- Cc1ccc(C(=O)Oc2ccc(Br)cc2C(=S)N2CCOCC2)cc1
 : 3.2% | 6.1% | -4.3% | .
- CCOc1cc(CNC(C)C)c(Cl)cc1OCC(=O)NCCc1ccccc1
 : 0.3% | -22.7% | -4.7% | 4.9
- COc1ccc(-c2cc(=O)oc3c(C)c(OCC(=O)N[C@@H](Cc4ccc(O)cc4)C(=O)O)ccc23)cc1
 : -2.2% | 0.1% | 0.6% | .
- CCNS(=O)(=O)c1ccc(NC(=O)Nc2cccc(C(F)(F)F)c2)cc1
 : -2.4% | 21.2% | ? | -3.1
- C=CCSC(=C(C#N)C#N)c1cc2c([nH]1)CCCC2
 : ? | 16.4µM* | ? | -5.9
- CCOC(=O)CC1(C)OCC(C[N+]2(C)CCCCC2)O1 (configuration not stated)
 : 1.9% | -3.6% | 1.4% | 4.9
- CCCCOC(=O)Nc1nc2ccc([N+](=O)[O-])cc2s1
 : 1.6% | 22.9% | 2.2% | 4.3
- Cc1cc(C)c(C(=O)CSc2nnc(N)s2)cc1C
 : -0.8% | 6.1% | -38.3% | -5.5
- CCc1ccc(/C=C2\SC(=S)N(CCCC(=O)Nc3ccccc3C(=O)O)C2=O)cc1
 : -0.7% | -3.8% | -2.9% | .
- O=C(Nc1ccccc1N1CCCC1)c1cc2ccccc2o1
 : -0.7% | -8.0% | -37.4% | -5.4
- COc1ccc(S(=O)(=O)N2CCCCC2)cc1C(=O)N1CCCCCC1
 : 2.6% | 4.6% | . | .
- COC(=O)[C@@]1(Cc2ccc(OC)cc2)[C@H]2c3cc(C(=O)N4CCCC4)n(CCO)c3C[C@H]2CN1C(=O)c1ccccc1
 : -2.2% | 2.8% | -3.1% | 0.2&-1.0
- O=C(NCC(=O)N(c1cccnc1)C(C(=O)NCc1ccco1)c1ccccc1)c1ccco1 (configuration not stated)
 : -0.4% | 12.4% | -3.9% | 5.7
- CCCCN(CCCC)S(=O)(=O)c1ccc2[nH]c(=O)[nH]c2c1
 : -1.1% | 1.0% | 0.9% | 4.0
- COc1ccc(C(=O)NCC(=O)N=Nc2c(O)n(C)c3ccccc23)cc1OC
 : ? | 7.5% | -1.9% | -0.3
- COc1cccc(C(=O)N2CCN(C(=O)c3ccc(-c4ccccc4)cc3)CC2)c1OC
 : -0.5% | -3.0% | -0.6% | -5.2
- O=C1CCC(c2ccccc2)(C2CCN(Cc3ccccc3)CC2)C(=O)N1 (configuration not stated)
 : 1.9% | -2.9% | . | .
- COC(=O)C1C(=O)C2=C(CC1C)NC(C)=C(C(=O)OCCOc1ccccc1)C2c1ccc(C)o1 (configuration not stated)
 : -0.4% | -24.1% | 19.7% | -11.0
- CCc1ccc(CNC(=O)C2CCCN(c3nn4c(=O)cc(C)nc4s3)C2)cc1 (configuration not stated)
 : 4.6% | -1.6% | -1.7% | .
- COC(=O)C1=C(CN2CCSCC2)NC(=O)NC1c1cc(C)ccc1C (configuration not stated)
 : -0.2% | 1.4% | -7.2% | -2.1
- C=CCn1c(=O)c(CCC(=O)Nc2ccc(N3CCOCC3)cc2)nc2cc(C(F)(F)F)ccc21
 : 3.1% | 0.0% | -0.3% | .
- CC1=[N+](CC(=O)NC(C)(C)C)CCc2ccccc21
 : -2.3% | -2.5% | -2.4% | -1.0
- NC(=O)COc1ccc(=O)n(-c2ccccc2)n1
 : -0.3% | -1.2% | -0.6% | -11.9
- Cc1ccccc1C(=O)N1CCCC(CCC(=O)N2CCN(c3ccccn3)CC2)C1 (configuration not stated)
 : 0.6% | -7.4% | 15.7% | .
- O=C(O)C(Cc1ccccc1)n1cccc1 (configuration not stated)
 : -1.4% | -15.8% | -1.4% | 4.8
- O=C(NC1CCCCC1)C1CCN(S(=O)(=O)c2cccc3nsnc23)CC1
 : 8.7% | 11.3% | -4.9% | -3.3
- Cc1onc(-c2ccccc2)c1C(=O)Nc1nnc(COc2ccc(Cl)cc2)s1
 : ? | -8.7% | -2.2% | 0.1
- O=C(c1cc(-c2cccs2)on1)N1CCOCC1
 : 2.3% | -5.6% | -41.8% | 3.2
- Cc1cc(C(F)(F)F)c2c(=O)[nH]c(=O)n(Cc3ccccc3)c2n1
 : -0.5% | -7.4% | -8.2% | 0.4
- CCOC(=O)Nc1nnc(-c2ccc(OC)c(OC)c2)s1
 : -1.4% | -1.3% | -10.4% | -3.9
- COc1ccccc1N(CCC#N)C(=O)CSc1nnc2ccccn12
 : -0.6% | 3.6% | . | .
- Cc1ccc(S(=O)(=O)Nc2ccc3[nH]c(=O)[nH]c3c2)c(C)c1
 : ? | ? | -0.3% | -5.9
- Cc1cc2ccccc2n1CCNC(=O)C1CC1
 : ? | ? | 0.8% | .
- O=S(=O)(NCc1ccccc1Cl)c1cnc[nH]1
 : -0.5% | 0.3% | -2.7% | 3.7
- CCOc1cc(C(c2c(C)[nH][nH]c2=O)c2c(C)[nH][nH]c2=O)ccc1OCc1ccc([N+](=O)[O-])cc1
 : -1.4% | 0.1% | 1.4% | 1.6
- COc1ccc(NS(=O)(=O)c2ccc(N3CCCC3)c(NC(=S)Nc3cccc(C)c3C)c2)cc1
 : 2.3% | 4.5% | 1.4% | -5.2
- CCOC(=O)Cc1csc(NC(=O)C(CC(C)C)NC(=O)C2CCCCC2)n1 (configuration not stated)
 : 1.2% | 31.1% | -3.3% | 6.5
- COc1ccccc1NC(=O)c1cccs1
 : -0.6% | -21.9% | -24.9% | 3.4
- COc1cc(OC)c(NC(=O)CN(C)S(=O)(=O)c2ccc3[nH]c(=O)oc3c2)cc1Cl
 : 2.6% | -7.4% | -8.6% | .
- CCOC(=O)CC1CCCCN1C(=O)c1ccc2nc(CCOC)oc2c1 (configuration not stated)
 : 4.9% | -2.5% | -2.2% | .
- O=C(Nc1ccc(F)cc1)N1CCN(c2ncccn2)CC1
 : 0.2% | 22.0% | -7.0% | -0.9
- Cc1ccc(C(=O)Nn2c(O)c(C=C3N=c4ccccc4=N3)sc2=S)cc1
 : 10.4% | 7.2% | 0.0% | -7.9
- CCc1cc(Cn2nc(-c3ccccc3C)cc2C(=O)O)on1
 : 2.2% | 0.2% | . | .
- COc1ccc(-n2c(N)c(C(=O)NCC3CCCO3)c3nc4ccccc4nc32)c(OC)c1 (configuration not stated)
 : ? | ? | -7.8% | 25.6
- Cc1ccccc1-n1ncc2c1CC(C)(C)CC2NC(=O)CCN1CCCCC1=O (configuration not stated)
 : -3.6% | -8.6% | 2.2% | .

Laid out differently: 10 of the compounds above.
Compound	Rango-impB inh	Rango release inh	miR-21 FLuc	GLA inh pH 4.5
COc1ccc(NS(=O)(=O)c2ccc(N3CCCC3)c(NC(=S)Nc3cccc(C)c3C)c2)cc1	2.3%	4.5%	1.4%	-5.2
CCOC(=O)Cc1csc(NC(=O)C(CC(C)C)NC(=O)C2CCCCC2)n1 (configuration not stated)	1.2%	31.1%	-3.3%	6.5
COc1ccccc1NC(=O)c1cccs1	-0.6%	-21.9%	-24.9%	3.4
COc1cc(OC)c(NC(=O)CN(C)S(=O)(=O)c2ccc3[nH]c(=O)oc3c2)cc1Cl	2.6%	-7.4%	-8.6%	.
CCOC(=O)CC1CCCCN1C(=O)c1ccc2nc(CCOC)oc2c1 (configuration not stated)	4.9%	-2.5%	-2.2%	.
O=C(Nc1ccc(F)cc1)N1CCN(c2ncccn2)CC1	0.2%	22.0%	-7.0%	-0.9
Cc1ccc(C(=O)Nn2c(O)c(C=C3N=c4ccccc4=N3)sc2=S)cc1	10.4%	7.2%	0.0%	-7.9
CCc1cc(Cn2nc(-c3ccccc3C)cc2C(=O)O)on1	2.2%	0.2%	.	.
COc1ccc(-n2c(N)c(C(=O)NCC3CCCO3)c3nc4ccccc4nc32)c(OC)c1 (configuration not stated)	?	?	-7.8%	25.6
Cc1ccccc1-n1ncc2c1CC(C)(C)CC2NC(=O)CCN1CCCCC1=O (configuration not stated)	-3.6%	-8.6%	2.2%	.

(listing goes on)
Every second line gives: Rango-impB inh | Rango release inh | miR-21 FLuc | GLA inh pH 4.5
- O=C(COC(=O)C1CCN(C(=O)c2ccc(Cl)cc2)CC1)Nc1ccccc1F
 : -1.3% | -1.9% | . | .
- N#Cc1c(-c2ccccc2Cl)noc1/C=C/Nc1ccc(C(=O)O)cc1
 : ? | ? | -32.2% | -7.0
- COc1ccc(CNC(=O)CN2C(=O)NC(C)(c3cccc(Br)c3)C2=O)cc1 (configuration not stated)
 : -0.8% | -4.6% | 7.2% | .
- CNS(=O)(=O)c1ccc(Cl)nc1
 : -2.4% | -2.4% | 0.3% | 4.4
- CCCCN(Cc1ccco1)C(=O)Cn1ncc2c(=O)oc3ccc(C)cc3c21
 : -3.3% | 29.0% | -0.8% | 1.8
- CC(C)CNS(=O)(=O)c1ccc(S(=O)(=O)N2CCC3(CC2)OCCO3)cc1
 : 1.6% | 0.5% | -13.8% | 5.4
- Cc1ccnc(-n2c(CCN3C(=O)c4ccccc4C3=O)nc3ccccc3c2=O)c1
 : -2.8% | 0.0% | 0.0% | -3.7
- O=S(=O)(c1ccc2c(c1)CCCC2)N1CCNCC1
 : -0.4% | -4.1% | . | .
- Cc1ccc(-n2c(SCC(=O)N3CCOCC3)nnc2-c2ccncc2)cc1
 : -0.1% | 4.8% | -3.1% | 5.0
- Cc1cc(OCC(=O)Nc2ccc3c(c2)OCCO3)ccc1Cl
 : 8.0% | -11.1% | -33.0% | -2.4
- CC(C)(C)C(=O)NCCN1CCN(C(=O)C(C)(C)C)CC1
 : 0.6% | -3.2% | -5.4% | 1.5
- C/C(=N/NC(=O)CNC(=O)CCc1ccccc1)c1ccc(Cl)c(Cl)c1
 : -0.9% | -21.8% | 2.6% | -2.5

Only part of the results is shown, so the mix of outcomes need not match the whole.
